GLA inh pH 4.5: blocks human alpha-galactosidase A at pH 4.5 | purified enzyme, 4-MU-alpha-Gal fluorescence, pH 4.5 | activity change, negative = inhibition, % at 105 µM | 230,000 tested, under 10 active; inconclusive = small, poorly fitted or top-dose-only inhibition, or a rising curve; inactive = flat fitted curve, though single readings scatter; no compound was filed as active;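 also: 0% = full activity with enzyme and -100% = basal without enzyme; dose as in the result columns while the protocol names 77 µM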
Target sequence (P06280 whole entry, looked up): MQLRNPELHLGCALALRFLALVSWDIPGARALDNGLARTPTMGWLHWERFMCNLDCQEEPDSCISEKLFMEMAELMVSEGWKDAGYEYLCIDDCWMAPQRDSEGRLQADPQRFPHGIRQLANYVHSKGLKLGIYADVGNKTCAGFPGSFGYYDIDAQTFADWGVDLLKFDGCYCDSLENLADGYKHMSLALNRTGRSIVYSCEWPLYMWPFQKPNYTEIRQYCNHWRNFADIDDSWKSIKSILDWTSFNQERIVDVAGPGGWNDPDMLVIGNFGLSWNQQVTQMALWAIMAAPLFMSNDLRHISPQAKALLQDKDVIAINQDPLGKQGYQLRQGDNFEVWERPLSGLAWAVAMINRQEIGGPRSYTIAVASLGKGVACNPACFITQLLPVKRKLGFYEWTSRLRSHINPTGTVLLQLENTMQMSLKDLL
miR-21 FLuc: miR-21 reporter, rising signal; HeLa miR-21 FLuc reporter, luciferase, 48 h; Potency, µM (series often up to 38.3 µM), without a hit: at the highest dose reporter change, positive = more light; 340,000 tested, under 10 active; active = well fitted rising curve with a large enough effect; inconclusive = small, poorly fitted or top-dose-only effect; inactive = no such curve, though single readings can be large or run the other way;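 also: % of control where 0% means no effect; miR-21 action dims this reporter so a rising signal means less miR-21 action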
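HeLa miR-21-FLuc reporter line, endogenous miR-21; 2000 cells/well in DMEM/10% FBS; compound titration up to ~40uM final, 48 h, 37 degree Celsius; luciferase detection reagent, 15 min lysis, CCD luminescence.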
Rango dissoc inh: inhibition of RanGTP-driven Rango-importin beta dissociation. O95149+P62826. Biochemical FRET Rango-importin beta, RanGTP-induced dissociation. Potency, µM (doses to about 46.1 µM), for inactives: top-dose activity change, negative = inhibition. actives 0.071% (n = 340,000). AID 540253; active means falling FRET ratio curve, often poorly fitted, with flat reads before Ran was added; inconclusive means other falling curves, or compound fluorescence or quenching; inactive means flat or rising ratio curve;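 also: potency is read from the fitted curve at half-maximal effect; % of control where 0% means no effect; nearly all actives have a fitted effect of over 45% in size; -100% = wells without RanGTP and RCC1; the record marks most hits as doubtful in a second field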
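FRET read at 45 min, room temperature: inhibitors block the CFP/YFP signal rise when RanGTP (0.6 uM Ran, 2 mM GTP, 0.2 uM RCC1) frees Rango (0.1 uM) from importin beta (0.25 uM). Pre-read after 5 min compound exposure flags interference.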
Rango complex inh: prevents formation of the Rango-importin beta complex. Q14974. Rango CFP/YFP FRET sensor + importin beta, 45 min. actives 0.031% (n = 340,000). AID 540263. Potency, µM (top dose mostly 92.2 µM), without a hit: top-dose inhibition of complex formation; active = rising FRET ratio curve, often small or poorly fitted; inconclusive = mostly compound fluorescence or quenching in the first reads; inactive = flat curves in all reads;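 also: potency is read from the fitted curve at half-maximal effect; 0% = DMSO wells and 100% = buffer wells lacking importin beta; nearly all actives have a fitted effect of over 15% in size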
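FRET biosensor Rango (snurportin 1 IBB between N-terminal EYFP and C-terminal Cerulean), 50 nM in PBS/1 mM DTT/0.02% Tween-20/0.1% BSA, preincubated 5 min RT with compound; 0.125 microM importin beta added, 45 min RT, CFP/YFP FRET ratio read.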
* = called active by the depositor; ? = inconclusive; · = no result given; & = joins results of further samples; [ ] = dose if it differs, or a comment.

no.	compound	GLA inh pH 4.5	miR-21 FLuc	Rango dissoc inh	Rango complex inh
1	CC(C)(C)CN1CCNC(=O)C1CC(=O)N1CCC(C(=O)N2CCOCC2)CC1 (centres undefined)	8	0%	5%	-4.4%
2	COc1ccc(OC(C)C(=O)N2CC(C)OC(C)C2)cc1 (centres undefined)	6	-3%	0%	-2.0%
3	Cc1cc(Cl)n2c(nc3cc(F)c(F)cc32)c1C#N	7[21.1 µM]	17%	?	?
4	O=C1c2ccccc2C(=O)N1CC(O)COc1ccc(Cl)cc1 (centres undefined)	·	-12%	-11%	?
5	O=C(CCNc1cccc(C(F)(F)F)c1)c1ccco1	1	-1%	0%	-0.2%
6	COc1ccc(-n2nnnc2-c2cnc(N3CCCC3)nc2C(F)(F)F)cc1	-25	21%	-18%	0.0%
7	COc1cc(C(=O)NCCCNc2nc3c(C)cc(C)cc3cc2C#N)cc(OC)c1OC	-1	-9%	?	?
8	COc1ccc(NS(=O)(=O)c2cc(NC(=O)C3CCCO3)ccc2N2CCCCC2)cc1 (centres undefined)	-8	6%	-10%	-2.1%

Limited to GLA inh pH 4.5 and miR-21 FLuc, for some of the entries so far:
entry	mol	GLA inh pH 4.5	miR-21 FLuc
4	O=C1c2ccccc2C(=O)N1CC(O)COc1ccc(Cl)cc1 (centres undefined)	·	-12%
3	Cc1cc(Cl)n2c(nc3cc(F)c(F)cc32)c1C#N	7[21.1 µM]	17%

Other records:
no.	compound	GLA inh pH 4.5	miR-21 FLuc	Rango dissoc inh	Rango complex inh
9	C=CCn1c(-c2cnn(-c3ccccc3)c2N)n[nH]c1=S	3	-31%	14%	-3.6%
10	COCCn1cnc2c(c1=O)c1nc3ccccc3nc1n2/N=C/c1ccco1	-8	4%	-20%	0.6%
11	C=CCn1c(O)c2ccc(C(=O)N=NC(=O)COc3ccccc3F)cc2c1O	·	·	-16%	-0.3%
12	CCCc1cc(=O)oc2cc(OCC(=O)N3CCC(C(N)=O)CC3)ccc12	·	3%	14%	0.7%
13	CCN1C(=O)[C@H]2[C@@H](c3ccc(C)cc3)N3C(=O)N(c4ccc(OC)cc4)C(=O)[C@@]3(CC)[C@H]2C1=O	·	·	-13%	-1.6%
14	O=C(NCCCN1CCCC1=O)C1CCN(S(=O)(=O)c2cccc(C(F)(F)F)c2)CC1	·	·	-14%	1.1%
15	O=C(Nc1ccc(Cl)cc1)c1ccc2nsnc2c1	-6	-29%	6%	-2.2%
16	O=C(Nc1cc(Cl)ccc1N1CCOCC1)c1ccc(=O)[nH]c1	·	·	-2%	3.0%
17	CCC(C)C(=O)Nc1nc2c(s1)C(=O)CC(C)(C)C2 (centres undefined)	3	-22%	-5%	?
18	COc1ccc(S(=O)(=O)N(C)C[C@H]2Oc3c(NC(=O)C4CC4)cccc3C(=O)N([C@H](C)CO)C[C@@H]2C)cc1	·	·	-5%	0.4%
19	O=S(=O)(/C=C/c1ccccc1)N1CCN(Cc2ccc3c(c2)OCO3)CC1	-3	-3%	13%	3.2%
20	Cc1cccc(N2CC(C(=O)OCC(=O)c3ccc(OC(=O)c4cccs4)cc3)CC2=O)c1C (centres undefined)	-9	-11%	-3%	3.5%
21	CC(C)N(CCCNC(=O)CC1Oc2ccccc2NC1=O)Cc1ccccc1 (centres undefined)	-13	-1%	26%	2.2%
22	CCn1cc(C(=O)NCc2ccc(Cl)cc2)c(=O)c2cc(S(=O)(=O)N3CCOCC3)ccc21	-1	-1%	-8%	-5.8%
23	Cc1nc(N2CCN(c3ccccn3)CC2)c2c(C)c(C(=O)Nc3ccc(F)c(Cl)c3)sc2n1	·	-2%	2%	?
24	Cc1ccc2nnnc(-c3ccccc3)c2c1	5	-8%	6%	0.0%

Overlap with the part before: 2 entries; new compounds follow.
no.	compound	GLA inh pH 4.5	miR-21 FLuc	Rango dissoc inh	Rango complex inh
23	Cc1nc(N2CCN(c3ccccn3)CC2)c2c(C)c(C(=O)Nc3ccc(F)c(Cl)c3)sc2n1	·	-2%	2%	?
24	Cc1ccc2nnnc(-c3ccccc3)c2c1	5	-8%	6%	0.0%
25	COc1ccccc1NC(=O)C(=O)N/N=C(\C)CC(=O)Nc1ccc(OCc2ccccc2)cc1	7	-31%	-10%	2.8%
26	CCOC(=O)C1CCCN(C(=O)CN2C(=O)NC(C)(c3ccc4ccccc4c3)C2=O)C1 (centres undefined)	·	·	22%	-1.5%
27	CCOc1ccccc1/C=C(/NC(=O)c1ccccc1)C(=O)N1CCCCC1	·	-6%	7%	1.6%
28	COc1ccc(CCN(C)CC(=O)Nc2c(C)cc(C)cc2C)cc1OC	·	-8%	-2%	0.2%
29	CCc1ccc(C2=NN(CCC(=O)NCc3cccs3)C(=O)CC2)cc1	-9	2%	13%	0.2%
30	CCOC(=O)c1cc(C#N)c(N2CCN(C(=O)c3cccc(C(F)(F)F)c3)CC2)nc1C(F)(F)F	-18	23%	19%	0.5%
31	Cc1cc(NC(=O)CSc2nc3ccccc3n2CC(=O)N2CCCCC2)no1	-15	0%	14%	-5.7%
32	CC(=O)Nc1ccc(OCC(O)Cn2cnc3ccccc32)cc1 (centres undefined)	8	0%	2%	-1.7%
33	COc1ccccc1NC(=O)CSc1nnc(-c2ccc(NC(C)=O)cc2)n1C	-4	0%	0%	-1.0%
34	COc1ccc(N2CCN(C(=O)CCS(=O)(=O)c3ccc4c(c3)NC(=O)CO4)CC2)cc1	·	0%	21%	5.1%
35	CCOc1cc(C2CC(=O)NC3=C2C(=O)C(C(=O)OC)C(C)C3)cc(Cl)c1O (centres undefined)	-4	-4%	-14%	5.7%
36	COc1ccccc1-c1nc(C#N)c(N2CCN(Cc3ccccc3)CC2)o1	0	-8%	-12%	-0.4%
37	Cc1ccc(S(=O)(=O)NNC(=O)c2ccccc2-n2cccc2)cc1	·	0%	1%	-0.2%
38	C(=NN1CCCCCC1)c1ccc2ccccc2n1	·	·	-7%	-2.5%
39	CN(C)Cc1c[nH]c2nc[nH]c(=O)c12	·	·	2%	-2.1%
40	CC1(C)Cc2ccccc2C(=NCC(=O)O)N1	7	-1%	-1%	0.6%
41	Cc1ccc(C)c(N2CCN(C(=O)Cc3ccc(NC4=NC5CS(=O)(=O)CC5S4)cc3)CC2)c1 (centres undefined)	·	7%	21%	3.4%
42	C[C@H](NC(=O)C1CCN(S(=O)(=O)c2ccccc2)CC1)C(=O)NCc1ccc(Cl)c(Cl)c1	·	5%	5%	?
43	O=C(N[C@@H](Cc1c[nH]c2ccccc12)C(=O)NC1CC1)c1ccccc1Cl	3	-60%	3%	-4.7%
44	CCOc1ccc(NC(=O)CN(C)CC(=O)NC2CCCc3ccccc32)cc1OCC (centres undefined)	4	1%	-1%	-1.6%
45	COc1ccc(C(=O)Nc2ccccc2NC(=O)c2ccco2)cc1OC	0	-16%	17%	?
46	Cc1ccc(C(=O)N/C(=C\c2ccc3c(c2)OCO3)C(=O)N2CCOCC2)cc1	·	3%	-12%	-1.5%
47	CC(C)c1ccccc1NC(=S)NCc1ccccc1F	-8	-6%	4%	5.6%
48	COc1ccc(Br)cc1CN(C)C(=O)c1cc(Cl)c2c(c1)OCCO2	·	-10%	7%	?
49	COc1ccc2cc(C3CC(c4ccco4)=NN3C(=O)CCC(=O)O)c(Cl)nc2c1 (centres undefined)	2	-19%	1%	-0.7%
50	CC(C)(C)C(=O)[C@H]1[C@H](c2ccccc2)[C@@]2(N=C(c3ccccc3)OC2=O)C2c3ccccc3C=NN21 (some centres undefined)	-2	-37%	-3%	0.2%
51	O=S(=O)(NCCN1CCOCC1)c1cccc(C(F)(F)F)c1	·	-1%	-11%	-3.9%
52	O=C(CSc1nnc(-c2ccncc2)s1)Nc1ccccc1	·	-4%	1%	-5.3%
53	Cc1noc(C)c1COc1ccccc1C(=O)NNC(=O)c1ccc(F)cc1	·	·	-17%	-0.3%
54	COc1cccc(C(=O)C2CCCN(CC3=Cc4cc(OC)ccc4OC3)C2)c1 (centres undefined)	-12	1%	6%	0.2%
55	Cc1cccc(NC(=O)[C@@H](CC(C)C)NC(=O)[C@@H]2Cc3ccccc3CN2)c1	·	-9%	14%	1.1%
56	COc1ccc(Cc2nnc(NC(=O)c3ccc(OC(C)=O)cc3)s2)cc1OC	·	2%	15%	-2.4%
57	COc1ccc(NC(=O)CN2C(=O)C(C)Oc3ccccc32)cc1OC (centres undefined)	·	8%	5%	2.9%
58	CC(C)c1ccc(NC(=O)CCN2C(=O)[C@@H]3Cc4ccccc4CN3C2=O)cc1	·	-6%	-10%	0.0%
59	CN(CC1CCOCC1)C(=O)CC1C(=O)NCCN1Cc1cccc(F)c1 (centres undefined)	·	0%	-20%	-4.7%
60	CC1Cc2ccccc2N1C(=O)Cn1cnc2c1c(=O)n(C)c(=O)n2C (centres undefined)	·	0%	7%	0.2%
61	C=COCCNC(=S)Nc1ccccc1	-3	12%	-7%	2.5%
62	O=C(OCC(=O)N1CCc2ccccc2C1)c1cccs1	8	-5%	0%	-2.5%
63	Cc1cc(C)c(NC(=O)CN2C(=O)CC(C)S(=O)(=O)c3ccccc32)c(C)c1 (centres undefined)	·	-1%	-7%	1.2%
64	COc1ccc(F)cc1CSc1nnnn1-c1ccc(O)cc1	·	19%	20%	2.5%
65	O=C(/C=C/c1ccc(Br)cc1)NC(=S)Nc1ccc(S(=O)(=O)Nc2nccs2)cc1	1	-12%	-8%	0.9%
66	CNC[C@H](O)c1cccc(O)c1	-5&-1	-10%	-16%	-1.7%
67	CC(=O)NC12CC3CC(C1)CC(C(=O)N1CCN(c4ncccn4)CC1)(C3)C2	·	·	8%	-3.2%
68	O=C(OCc1nnc(-c2ccccc2)o1)c1cc(F)c(F)cc1Cl	0	4%	-7%	-5.3%
69	COc1ccc(C2=NOC(C(=O)NCc3cccs3)C2)cc1 (centres undefined)	-10	-14%	-15%	5.0%
70	Cc1cccc(C(C)C)c1NS(=O)(=O)c1cn(C)nc1C	·	0%	1%	3.0%
71	CCC(CC)C(=O)Nc1cccc(-c2nc3ccccc3o2)c1	8	2%	0%	0.0%
72	COc1ccc(-n2c(O)c(C=Nc3ccccc3)c3ccccc3c2=O)cc1OC	-1	-2%	-29%	?
73	CC(=O)N1CCC(N(C(=O)Nc2c(F)cccc2F)C(C)C)CC1	2	0%&3%	2%	-2.7%
74	Cc1cc(C)cc(C(=O)NCC(=O)OCC(=O)c2c(N)n(C)c(=O)n(C)c2=O)c1	·	·	9%	1.3%
75	COc1ccc(NC(=O)CCS(=O)(=O)c2cccc3nonc23)c(OC)c1	-1	2%	8%	1.4%
76	CC(C)Nc1nc2c(c(=O)n(C)c(=O)n2C)n1C	-7	-3%	-13%	2.3%
77	COCCCN1CCc2[nH]c(=S)[nH]c(=O)c2C1	3	-5%	-4%	0.0%
78	O=C(Cn1nnc(-c2cccs2)n1)N1CCc2ccccc2C1	4	-36%	-7%	-1.0%
79	CN(CC(=O)Nc1ccc(F)cc1)C(=O)c1ccc(N2C(=O)CCC2=O)cc1	·	·	12%	4.7%
80	Cc1cc(NC(=O)CN2C(=O)c3ccccc3C2=O)no1	-2	5%	0%	-1.2%

(cont.)
no.	compound	GLA inh pH 4.5	miR-21 FLuc	Rango dissoc inh	Rango complex inh
81	CC(NC(=O)COC(=O)c1cc([N+](=O)[O-])ccc1N1CCOCC1)c1ccccc1 (centres undefined)	·	-8%	5%	?
82	Cc1ccc(OC(C)C(=O)Nc2ccc3c(c2)n(C)c(=O)n3C)c(C)c1 (centres undefined)	·	2%	-6%	-1.8%
83	O=C(NCc1ccccc1)NC12CC3CC(CC(C3)C1)C2	-4	-9%	1%	-3.1%
84	O=C(c1cccc2ccccc12)N1CCN(Cc2ccccc2F)CC1	·	7%	1%	0.9%
85	O=C(O)CC/C(=N\NC(=O)c1ccccc1Br)c1ccccc1	2	-15%	6%	-1.9%
86	CCCNC(=O)c1onc(CSc2ccc(F)cc2)c1C(=O)NCC1CC1	·	·	-6%	3.8%
87	Cc1cc(Cl)ccc1C(=O)C1CCCN(C(=O)c2snnc2C)C1 (centres undefined)	1	-2%	3%	-3.3%
88	Brc1ccc(CN2CCN(c3ccccn3)CC2)s1	-3	-14%	-10%	-3.6%

An excerpt (hit frequency here may not be typical).
